BJeLR viability = BJeLR cell viability loss; inhibition, % (concentration not given with the values); BJeLR (HRASV12) viability, CellTiter-Glo ATP luminescence, 48 h; reference of the scale not given here; hit rate 0.17% among 300,000;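 active means replicate mean above 50%; inconclusive means above 50% but judged a plate artefact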;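 further: 50 nL library stock added to about 25 µL; numbers are from one replicate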
Sa ugtP lethal = growth inhibition of S. aureus ugtP deletion strain; hit rate 0.54% among 330,000; S. aureus RN4220 ugtP deletion, OD600 growth, 16 h; some inactives read as strong as hits; growth inhibition, % (test concentration not listed); AID 1259309;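 active means z-score under -3 and OD600 up to 0.15 on both plates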;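 further: plate controls were untreated wells for no effect and antibiotic for full effect; wells of about 80 µL received 100 nL stock; the first replicate is given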
PrP 5UTR inh = suppresses PrP 5' UTR mRNA reporter expression; cell-based PrP 5' UTR mRNA reporter, plate reader; inhibition, % (concentration not given with the values); hit rate 0.35% among 340,000; AID 488862;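 active means every replicate at 50% or more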;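 further: 0 = median of the neutral control wells; tested in H4 reporter cells; numbers are from one replicate; inactives centre near -14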
Bead autofluor = compound fluorescence in toxin protease inhibitor counterscreen; fluorescence intensity (no concentration beside the values); hit rate 3.1% among 360,000; compound autofluorescence counterscreen, microsphere flow cytometry; stronger effect = higher value;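 active means at least 3 SD above the mean of all compounds, about 16000 in these data; inconclusive means too few beads counted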;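 further: 100 nL of 1 mM stock went into each well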
Mtb hypoxia inh = inhibitors of hypoxia-regulated fluorescent reporter in Mycobacterium tuberculosis; AID 1159583; fluorescence inhibition, % (no concentration beside the values); M. tuberculosis hypoxia-regulated fluorescent reporter, fluorescence; hit rate 0.1% among 300,000;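 active means 35 to 45% if threefold the growth effect, above 45% if 1.5-fold the growth effect; inactive means the rest, general growth blockers included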;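 further: wells of about 50 µL received 100 nL stock; 0% = vehicle wells and 100% = reference inhibitor wells; whole bacteria with a GFP reporter of the hypoxia response; strong numbers were not always called active; many hits fall short of the cut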
RN4220 kill = kills Staphylococcus aureus RN4220; S. aureus RN4220 growth, OD600, 16 h; inhibition, % (no concentration beside the values); hit rate 0.33% among 330,000;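 active means z-score of -3 or lower and OD600 up to 0.18 on both plates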;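 further: plate controls were untreated cells for no effect and reference antibiotic for full effect; stock transfer was 100 nL into about 80 µL; one replicate is shown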
Mtb hypoxia inh growth = recorded beside Mtb hypoxia inh, whose call it bears; growth inhibition, %; measured here: M. tuberculosis growth (absorbance);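 0% = vehicle and 100% = reference antibiotic; read after six days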
Numbers without * were called inactive; ? = inconclusive; nt = no result given.

SMILES | BJeLR viability | Sa ugtP lethal | PrP 5UTR inh | Bead autofluor | Mtb hypoxia inh | Mtb hypoxia inh growth | RN4220 kill
CCc1ccc2[nH]c(=O)c(CN(Cc3ccc4c(c3)OCO4)C(=O)c3ccco3)cc2c1 | -4.5 | -4.6 | nt | nt | 11.7 | 11.3 | -10.9
C#CCN1C(=O)C(O)(CC(=O)c2cccc(OC)c2)c2ccccc21 (stereo unspecified) | 0.6 | -1.3 | -23.7 | 3708 | 7.9 | 14.4 | 7.7
O=C(c1ccccc1F)N1CCN(c2cccc(C(F)(F)F)c2)CC1 | 12.0 | 6.3 | -19.6 | 4423 | 8.2 | 1.5 | 1.7
COc1ccc(OCCOC(=O)CCS(=O)(=O)c2ccc(C)cc2)cc1 | 1.8 | 10.0 | -11.9 | 4610 | -5.1 | -9.8 | 0.7
COCCCNC(=O)CCS(=O)(=O)Cc1ccc(C)cc1 | -7.7 | 4.0 | -59.1 | 11628 | 3.1 | 2.7 | 2.3
O=C(O)C[C@@H](CNC(=O)COc1ccc2ccc(=O)oc2c1)c1ccc(Cl)cc1 | 2.9 | 10.4 | -4.4 | 5469 | 11.8 | 8.5 | 1.6
O=C(NCc1ccco1)c1ccc(COc2cc(Cl)ccc2Cl)cc1 | -4.3 | 4.9 | -31.0 | 2407 | 2.8 | 5.2 | -5.1
Cc1c(NCc2cccnc2)cccc1C(=O)O | -4.7 | 0.0 | 9.8 | 3165 | -1.0 | -3.5 | 0.9
COc1cc(C(=O)N2CCC(C(N)=O)CC2)ccc1OCc1c(C)noc1C | nt | 3.4 | -10.6 | 2971 | 7.4 | 5.7 | 0.8
CCCCOc1ccc(C(O)C(CN2CCCCC2)c2ccccc2)cc1 (stereo unspecified) | -0.4 | -3.8 | -49.4 | 4670 | 4.8 | 8.6 | 0.5
CCOc1ccc(C(=O)Nc2nnc(SCC(=O)NCC3CCCO3)s2)cc1 (stereo unspecified) | 2.8 | 17.5 | 49.6 | 4758 | 1.4 | 0.5 | 4.2
Cc1cccc(C)c1Nc1nnc(SCc2nc3ccccc3s2)s1 | 2.3 | -15.5 | -53.9 | 3226 | 21.1 | 6.5 | 6.5
COc1ccccc1C(=O)COC(=O)CN1C(=O)NC2(CCCC2)C1=O | 11.1 | 4.2 | -20.2 | nt | 9.8 | 9.8 | 3.3
CCOC(=O)C1=C(CSc2nccn2C)NC(=O)NC1c1ccc2c(c1)OCO2 (stereo unspecified) | -2.9 | 7.9 | -22.4 | 2739 | nt | nt | -5.3
CCC1Oc2ccc(C)cc2N(CC(=O)NCc2cc(OC)ccc2OC)C1=O (stereo unspecified) | 4.4 | 0.9 | -21.9 | 7638 | 17.1 | 8.8 | 5.9
Cc1nn(-c2ccc(C(=O)Nc3nnc(C4CC4)s3)cc2)c(C)c1Cl | -2.4 | 5.0 | -12.2 | 4819 | nt | nt | -0.4
Cc1ccc(NS(=O)(=O)c2ccc(OCC(=O)NCc3ccccn3)cc2)cc1 | 3.3 | 3.9 | -14.5 | 5271 | 4.4 | 3.4 | 4.7
COc1ccc(C(=O)NC(Cn2ccnc2)C(C)(C)C)cc1OC1CCN(C(C)C)CC1 (stereo unspecified) | 9.1 | -3.8 | -5.6 | ? | -11.2 | -5.1 | -3.3
Cc1ccc(CN2CCN(CCCn3cccn3)CC2CCO)cc1 (stereo unspecified) | -4.6 | 3.0 | -33.2 | 3749 | 14.1 | 2.9 | 4.5
Cc1nc(SCC(=O)NCC2CCCO2)nc(C)c1C (stereo unspecified) | nt | 6.2 | nt | 5253 | 8.7 | 10.4 | 5.1
Cc1sc2nc(CN3CCOCC3)nc(NCCc3ccccc3)c2c1C | 12.2 | -4.4 | -24.0 | 8597 | 6.7 | 6.3 | 7.3
N#Cc1c(-n2cccc2)cccc1-n1cccc1 | -9.1 | 24.6 | -4.6 | 8281 | 5.7 | 3.7 | 2.5
CC(C)(C)C(=O)NC1CC2CCCC(C1)N2C(=O)Nc1ccccc1 (stereo unspecified) | -2.7 | 7.3 | 3.4 | nt | 7.7 | -2.0 | 4.4
COc1ccc(OC)c(NC(=O)Cc2cccs2)c1 | -3.6 | 4.5 | -6.2 | 3817 | 3.6 | 4.2 | 0.9
O=C(CSc1ccccc1)NCc1ccco1 | -2.5 | -6.9 | -24.3 | 3268 | 4.3 | 8.9 | -13.9

Sorted by SMILES length (rising): 5 of the compounds above.
SMILES | BJeLR viability | Sa ugtP lethal | PrP 5UTR inh | Bead autofluor | Mtb hypoxia inh | Mtb hypoxia inh growth | RN4220 kill
O=C(CSc1ccccc1)NCc1ccco1 | -2.5 | -6.9 | -24.3 | 3268 | 4.3 | 8.9 | -13.9
COc1ccc(OC)c(NC(=O)Cc2cccs2)c1 | -3.6 | 4.5 | -6.2 | 3817 | 3.6 | 4.2 | 0.9
COc1ccc(OCCOC(=O)CCS(=O)(=O)c2ccc(C)cc2)cc1 | 1.8 | 10.0 | -11.9 | 4610 | -5.1 | -9.8 | 0.7
COc1ccc(C(=O)NC(Cn2ccnc2)C(C)(C)C)cc1OC1CCN(C(C)C)CC1 (stereo unspecified) | 9.1 | -3.8 | -5.6 | ? | -11.2 | -5.1 | -3.3
CCc1ccc2[nH]c(=O)c(CN(Cc3ccc4c(c3)OCO4)C(=O)c3ccco3)cc2c1 | -4.5 | -4.6 | nt | nt | 11.7 | 11.3 | -10.9

Next part.
SMILES | BJeLR viability | Sa ugtP lethal | PrP 5UTR inh | Bead autofluor | Mtb hypoxia inh | Mtb hypoxia inh growth | RN4220 kill
O=C(N/N=C/c1ccc[nH]1)c1sc2ccccc2c1Cl | -9.5 | nt | -23.8 | 10487 | nt | nt | nt
Cc1cccc(N2CCN(C(=O)c3noc4c3COc3ccc(C)cc3-4)CC2C)c1 (stereo unspecified) | 0.5 | -2.1 | -13.6 | 5893 | -4.1 | -1.5 | -1.6
CSc1nsc(SCC(=O)N2CCCCC2)n1 | 7.4 | 10.5 | -22.1 | 4035 | nt | nt | 5.2
CN1C(=O)N(c2nnc(C(C)(C)C)s2)C(=O)C1c1ccccc1 (stereo unspecified) | -10.7 | 15.5 | -8.2 | 4654 | -0.4 | -6.0 | 1.9
COc1ccc(C(=O)OCC(=O)NCC2CCCCC2)cc1S(=O)(=O)N1CCCc2ccccc21 | -3.4 | -1.3 | -1.1 | 4209 | nt | nt | -1.6
CCN1CCN(C(=O)N(CC(=O)Nc2ccc(C(N)=O)cc2)S(=O)(=O)c2ccc(C)cc2)CC1 | 2.5 | 2.8 | -101.3 | 4511 | -3.8 | 5.4 | -1.0
CCOC(=O)C1=C(C(F)(F)F)Nc2ncnn2C1c1cc(OC)c(OC)cc1OC (stereo unspecified) | -15.1 | 6.0 | -10.7 | 2525 | 16.1 | 3.2 | 5.0
O=C(Cc1ccccc1[N+](=O)[O-])NCCC1=CCCCC1 | 2.7 | 3.1 | -18.1 | 3173 | 17.2 | 4.3 | 2.5
S=C(NCCc1ccccc1)NCCN1CCOCC1 | -18.9 | 3.5 | -0.9 | 3596 | 11.6 | 16.4 | 0.9
Cc1ccc2c(c1)nc(NCCCO)n2C | -2.0 | nt | -16.8 | 2152 | nt | nt | nt
CCCn1c(SCC(=O)NC23CC4CC(CC(C4)C2)C3)n[nH]c1=O | 10.0 | -3.6 | -20.5 | 2656 | nt | nt | -3.0
COc1ccc(-n2c(Cc3cccn3C)nnc2SCC(=O)N2CCCC2)cc1 | -9.6 | 1.3 | 10.7 | 4894 | nt | nt | 5.8
COc1cc(OC)c(N(C)C(=O)c2cc3c(s2)-c2ccccc2S(=O)(=O)C3)cc1Cl | 11.8 | 4.6 | 23.8 | 6207 | nt | nt | 3.3
CNC(=O)COc1ccc(S(=O)(=O)Nc2ccccc2)cc1 | 7.2 | -6.4 | -10.4 | 4778 | -2.7 | -7.4 | -3.7
Cc1nc2ccc(NC(=O)Cc3cccs3)cc2s1 | 2.6 | 0.6 | -63.7 | 4475 | 9.1 | 11.4 | -1.1
CC1=CC(C)C2COC(c3ccc[n+](C)c3)C1C2C (stereo unspecified) | 3.2 | 12.1 | -19.0 | 2580 | 0.1 | -4.9 | 2.3
CC(=O)c1nnn(-c2ccc([N+](=O)[O-])cc2C)c1C | -10.9 | 1.1 | -4.5 | 4346 | 9.3 | 4.1 | 1.1
O=C(NNC(=O)c1ccccc1Cl)c1ccncc1 | 5.7 | -0.9 | -21.9 | 6888 | 10.6 | 7.8 | 3.1
Cc1ccc(C)c(S(=O)(=O)ON2C(=O)c3ccccc3C2=O)c1 | nt | 0.4 | -8.3 | 2468 | -12.0 | -11.6 | -2.5
COc1ccc(N(CC(=O)Nc2ccc(F)cc2F)S(=O)(=O)c2c(C)nn(C)c2C)cc1 | 9.3 | 17.0 | -4.1 | 4335 | 5.2 | 2.4 | 3.2
O=C1c2ccccc2C(=O)N1OS(=O)(=O)c1ccc(F)cc1 | 1.1 | -10.8 | -22.9 | 5386 | -2.7 | 4.8 | -1.7
O=C(NC(=S)Nc1ccccc1N1CCOCC1)c1cccs1 | -1.0 | -3.5 | -17.3 | 2604 | 14.3 | 16.1 | 2.1
CCCc1cc(C(=O)OC)c(NC(=O)CCC(=O)O)s1 | 4.0 | 4.1 | -4.6 | 4586 | -0.1 | -2.4 | 3.8
CCOC(=O)C(CC)/C(C)=N\NC(=O)CCC(=O)Nc1ccc(Cl)cc1Cl (stereo unspecified) | 4.9 | nt | -45.2 | 4625 | nt | nt | nt
CCCCC(NC(=O)Cc1c(C)c2cc3c(C)c(C)oc3c(C)c2oc1=O)C(=O)O (stereo unspecified) | -17.1 | -4.3 | -3.1 | 3290 | -6.8 | -6.8 | -2.5
Additional compounds follow:
SMILES | BJeLR viability | Sa ugtP lethal | PrP 5UTR inh | Bead autofluor | Mtb hypoxia inh | Mtb hypoxia inh growth | RN4220 kill
Cc1cc(C)c2c(CC(=O)O)c(C)[nH]c2c1 | -1.4 | -5.6 | -7.3 | 3550 | 12.3 | -2.0 | 9.9
CC1CN(C(=O)c2ccccc2OCc2ccc(Cl)cc2Cl)CC(C)O1 (stereo unspecified) | nt | 2.0 | -11.3 | 3802 | 10.3 | 16.6 | 10.5
CCn1c(CNc2nc3ccccc3n2C(C)C)nc2ccccc21 | -4.6 | 1.9 | -21.0 | 4518 | 1.5 | 5.9 | -2.1
CCOC(=O)Cc1csc(NN=Cc2cccc(Br)c2)n1 | nt | 1.7 | nt | nt | 1.5 | 2.9 | 8.6
Cc1cc(C)nc(NC(=S)NC(=O)c2ccccc2)n1 | -2.7 | 5.1 | -21.7 | 3771 | 15.4 | 9.4 | 0.6
Cc1c(Cl)cccc1NC(=O)CNC(=O)CCS(=O)(=O)c1ccc(F)cc1 | nt | 3.6 | -22.4 | ? | 2.5 | 7.2 | 4.6
CCc1nnc(NC(=O)C2CCCN2C(=O)Nc2ccc(C)cc2)s1 (stereo unspecified) | -2.9 | 8.3 | -20.5 | 5834 | 5.0 | -3.8 | -1.0
CC(C)Oc1ccccc1NC(=O)CSc1nccn1C | -10.2 | -0.4 | -27.2 | 3627 | -5.0 | -1.3 | -0.5
CC(=NNC(=O)c1nnn(-c2nonc2N)c1CN(C)C)c1ccco1 | nt | 5.8 | nt | nt | 0.6 | -8.8 | 2.5
COc1ccc(CCNC2=CC(=O)CC(C)(C)C2)cc1 | 8.1 | 2.3 | -24.0 | 3554 | 0.4 | 1.6 | 2.2
COc1ccc(C2=NCCn3nc4cc(OC)ccc4c32)cc1 | nt | -9.2 | -17.0 | 4828 | 6.3 | 11.8 | -10.8
Cc1ccc(N(CC(=O)O)S(=O)(=O)c2cccc3nonc23)cc1 | -3.4 | 2.1 | -4.2 | 4722 | nt | nt | 1.7
Cc1cc2c(c(=O)o1)C1(C(=O)N(CC(=O)O)c3ccccc31)C(C#N)=C(N)O2 (stereo unspecified) | -4.6 | 5.3 | -10.1 | 3580 | nt | nt | 0.4
CCOc1ccc(C(CC(=O)O)NC(=O)c2cccs2)cc1OC (stereo unspecified) | 3.0 | 0.3 | -2.9 | 4995 | 6.6 | -2.2 | 1.8
N#Cc1ccccc1S(=O)(=O)N1CCN(CC(O)c2ccccc2)CC1 (stereo unspecified) | 10.2 | 3.2 | -16.1 | 3785 | 11.5 | 10.3 | 6.3
CCn1c(C(C)NC(=O)c2cccs2)nc2ccccc21 (stereo unspecified) | -1.2 | 5.7 | -5.0 | 5085 | 2.4 | 14.6 | 3.4
COc1ccc(C)cc1NC(=O)C(CCS(C)(=O)=O)NC(C)=O (stereo unspecified) | -0.8 | -4.6 | -10.8 | 5799 | 5.6 | 11.3 | -9.5
Cc1ccsc1/C=N\NC(=O)CCc1c(C)n[nH]c1C | 4.9 | nt | -6.5 | 4458 | nt | nt | nt
